AID504770: E. coli YBA685 growth inhibition, screen for V. cholerae RctB inhibitors; actives 0.27% (n = 130,000); E. coli YBA685 rctB-dependent plasmid, OD600 growth, 3 h; stronger effect = lower value; z-score (concentration not given with the values);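 active = z-score under -2 on both plates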;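 note: wells of about 30 µL received 100 nL stock; score is relative to mean and SD of the test wells; the first replicate is given; strong numbers were not always called active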
CapD inh: blocks the Bacillus anthracis CapD enzyme. purified CapD enzyme, fluorescence intensity read-out; stronger effect = lower value; some hits fall short of the stated cut. z-score (no concentration beside the values). actives 0.23% (n = 140,000);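 active = z-score under -4 in either of two replicates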;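 note: stock transfer was 100 nL into about 40 µL; score is relative to mean and spread of the plate; one replicate is shown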
The depositor's hits bear a star; x = not tested or not shown.

Start of the data: the first 4 compounds, to show the layout:
Screens in order: AID504770 | CapD inh
O=C(Cn1nc(C(F)(F)F)c2c1CCC2)N1CCCC1
 : 2.9 | -0.17
CSc1nc(Sc2ccc(Cl)cc2Cl)c2ccccc2n1
 : x | 3.7
Cc1cc(Nc2ccccc2)n(-c2ccc(C(=O)O)cc2)n1
 : -0.05 | x
COC(=O)C(O)(CC(=O)Nc1ccc(OC(F)(F)F)cc1)C(F)(F)F (stereo not drawn)
 : -0.15 | 0.76

Results, from the first entry:
Screens in order: AID504770 | CapD inh
O=C(Cn1nc(C(F)(F)F)c2c1CCC2)N1CCCC1
 : 2.9 | -0.17
CSc1nc(Sc2ccc(Cl)cc2Cl)c2ccccc2n1
 : x | 3.7
Cc1cc(Nc2ccccc2)n(-c2ccc(C(=O)O)cc2)n1
 : -0.05 | x
COC(=O)C(O)(CC(=O)Nc1ccc(OC(F)(F)F)cc1)C(F)(F)F (stereo not drawn)
 : -0.15 | 0.76
CCCCS(=O)(=O)Nc1ccc(C)cn1
 : 0.55 | x
Cc1nc(SCC(=O)NC2CCCCC2)c2c3c(sc2n1)CCCC3
 : x | -0.35
COC(=O)c1sc2ccccc2c1NC(=O)C1CCCCC1
 : -0.3 | 14
O=C(N/N=C/c1ccc([N+](=O)[O-])cc1)C1C(c2ccccc2)C(C(=O)N2CCOCC2)C1c1ccccc1 (stereo not drawn)
 : x | -0.46
CCCCCc1ccc(-c2ccc(C(=O)O)cc2)nc1
 : 1.5 | 0.06
CCN(CC)c1ccc2nnc(CCC(=O)N3CCCC3)n2n1
 : -1.6 | -0.23
CCSc1nnc(NC(=O)CSc2ncccn2)s1
 : -1.1 | -0.36
CC12CCC3C4CCC(=O)C=C4CCC3C1CC[C@]2(C)O (stereo partly drawn)
 : x | 0.22
O=C(Cc1ccccc1)NN1C(=O)CSC1=S
 : -0.9 | x
CCc1ccc(CN2C(=O)c3ccccc3C2C(=O)NCC2CCCO2)cc1 (stereo not drawn)
 : -0.15 | -0.43
O=C(O)c1cccc(NCc2ccc(Cl)cc2)c1
 : 0.1 | x
Cc1cn(CCOc2ccc(Cl)cc2)c(=O)[nH]c1=O
 : -0.3 | 0.005
COc1cc(Br)c(CN2CCCC(COC(=O)NNC(=O)c3cc(C(C)(C)C)[nH]n3)C2)cc1OC (stereo not drawn)
 : x | -1.1
CCn1nc(C(C)C(=O)O)c2ccccc2c1=O (stereo not drawn)
 : -0.5 | x
CC(NCc1ccccc1)c1ccco1 (stereo not drawn)
 : 0.2 | -0.78
CCSc1ccc(C(=O)Nc2ccc(Sc3nccc(C)n3)cc2)cc1
 : x | -0.97
CC1(C)c2ssc(=S)c2-c2ccccc2N1C(=O)c1cccc([N+](=O)[O-])c1
 : x | 0.03
COCCN(C1CCN(C(=O)C(c2ccccc2)c2ccccc2)CC1)S(=O)(=O)c1ccccc1
 : x | -0.15
O=C(COC(=O)Cc1c[nH]c2ccccc12)Nc1ccc(S(=O)(=O)N2CCCC2)cc1
 : 1.1 | x
CCNC(=O)c1cccc(N)c1
 : -0.05 | x
COc1ccc(NC(=O)c2cccnc2N2CCCC2)cc1
 : 1.3 | -0.43
CC(=O)N1c2ccc(S(=O)(=O)N3CCC(C(=O)N4CCN(c5cc(Cl)ccc5C)CC4)CC3)cc2CC1C (stereo not drawn)
 : 1.2 | 0.21
CC(=O)N1N=C2c3ccccc3CCC2C1c1cccs1 (stereo not drawn)
 : 0.45 | -1.1
O=C(Cn1ncc2ccc(Cl)cc21)N1CCCCC1
 : -0.6 | 0.51
COC(=O)c1cc(C(=O)OC)c(C(=O)OC)cc1C(=O)OC
 : -0.5 | -0.15
CCCCn1c(=O)n(CC(=O)c2[nH]c(C)c(C(=O)OCC)c2C)c(=O)c2c1ncn2Cc1ccco1
 : -0.5 | x
CC(=O)Nc1ccc(Br)c(OC(F)F)c1
 : -1.1 | x
Oc1ccc(Br)cc1C1Nc2cccc3cccc(c23)N1
 : x | 1.6
CCOC(=O)c1c(C)n(-c2ccccc2)c2c1cc(OC(=O)c1ccc(OC)cc1)c1ccccc12
 : x | 0.22
CC12CC(c3ccccc3O1)C(C(=O)OCc1ccccc1)C(=O)N2 (stereo not drawn)
 : -0.6 | -0.065
O=C(NCN1CCOCC1)c1cccnc1
 : 1.5 | x
O=C(OCCc1ccccc1Cl)N1CCC(N2CCCCC2)CC1
 : x | 0.58
CN(C(=O)c1nn(C)c2c1CSc1ccccc1-2)c1ccccc1
 : -1.1 | -0.42
CCOC(=O)C1(C(=O)OCC)Oc2c(OC)cccc2C1O (stereo not drawn)
 : -0.2 | -0.9
CC(=O)N(c1ccccc1)c1nc(CSc2nnc(-c3ccc(C)cc3)o2)cs1
 : 0.2 | x
Cc1ccc(Nc2nc(N)nc(CSc3ncccn3)n2)cc1
 : -1.2 | -0.07
CCCC1=C(C(=O)OCC)C(c2c(C)nn(-c3ccccc3)c2Cl)C(C#N)=C(N)O1 (stereo not drawn)
 : x | 2.7
COc1cccc(NC(=O)C2COc3ccccc3O2)c1 (stereo not drawn)
 : x | -0.1
FC(F)(F)c1cccc(-c2csc(-c3ccc(-n4cncn4)nc3)n2)c1
 : 0 | 7.7
Cc1ccc(C2=NN(C(=O)CCC(=O)O)C(c3cn(-c4ccccc4)nc3-c3ccccc3)C2)cc1 (stereo not drawn)
 : x | -0.13
O=S(=O)(c1cc(F)c(Br)cc1F)N1CCN(c2c(Cl)cncc2Cl)CC1
 : x | -1
CCN(CC(=O)Nc1ccc(OC)cc1)Cc1nc2sc(C(=O)OC)c(C)c2c(=O)[nH]1
 : 0.4 | x
O=C(O)COc1ccccc1C=C1C(=O)c2ccccc2C1=O
 : 0.85 | -0.52
c1ccc(NCc2ccncc2)cc1
 : -0.75 | x
Cc1ccc(CSc2nc(C)c(Oc3cccc(C(F)(F)F)c3)c(=O)n2C)cc1
 : 0.65 | 10
Nc1c(C(=O)NCc2ccccc2)sc2nc(-c3cccs3)cc(C(F)(F)F)c12
 : x | 5.8
Cc1ccc(-c2csc(NC(=O)c3cccs3)n2)cc1C
 : -1.7 | 0.59
CC(C)(C)OC(=O)N1CCN(Cc2ccccc2)CC1
 : 1 | -0.4
COc1ccc(SCCc2ccncc2)cc1
 : 0 | x
CCOc1cc(C2C(C(=O)OC(C)C)=C(C)NC3=C2C(=O)CC(c2ccccc2)C3)ccc1OC(C)=O (stereo not drawn)
 : x | 11
O=C1OCCN/C1=C/C(=O)c1ccc(Cl)cc1
 : -0.1 | -2.9
Cc1ccc2c(c1)c(-c1ccccc1)c(-c1ccccc1)n2CC(O)CN1C(=O)CCC1=O (stereo not drawn)
 : x | 40
Cc1ccc(C(=O)N/N=c2\oc3ccccc3cc2C(N)=O)cc1
 : -0.35 | -0.16
O=C(O)C(Cc1ccccc1)NCc1ccccc1O (stereo not drawn)
 : x | 0.53
CCOc1cccc(C(=O)NNC(=O)OCCc2ccccc2C)c1
 : x | -0.07
CC(C)NC(=O)/C=C/c1ccco1
 : -0.5 | x

Additional results
Screens in order: AID504770 | CapD inh
CCOC(=O)c1cc(CC)sc1/N=C/C1C(=O)NC(=S)NC1=O
 : -0.45 | -0.1
COc1ccc(-c2csc3nc[nH]c(=O)c23)cc1OC
 : -0.05 | 0.32
NC(=O)CN(C1CCCCC1)S(=O)(=O)c1ccc(Br)cc1
 : -0.2 | x
O=C(CN1C(=O)CCC1=O)NCc1ccc2c(c1)OCO2
 : 0.05 | x
O=C(O)c1ccccc1C(=O)N1CCC(c2nnc(-c3ccccc3)o2)CC1
 : x | -0.17
N#CC(c1ccccc1)c1cn2cc(Br)ccc2n1 (stereo not drawn)
 : -0.9 | -0.39
CCCCCCOc1ccc(S(C)(=O)=O)cc1N
 : x | -0.26
O=S(=O)(NCc1ccccn1)c1ccccc1F
 : x | 1.1
NC(=O)CN1C(=O)C2(OCCO2)c2ccccc21
 : x | 0.12
COc1ccc(NC(=O)c2nc(C)n(-c3cc(Cl)cc(Cl)c3)n2)cc1
 : x | -0.26
COc1ccc(C(C)=CC(=O)C(C)(C)C)cc1
 : -0.3 | -0.36
CCCc1c(NC(=O)Nc2ccc(F)cc2)cnn1-c1ccccc1
 : -0.95 | -0.005
Cn1c(C(=O)Nc2ccc(C(=O)N3CCCC3)cc2)cc(=O)n(C)c1=O
 : -0.9 | x
CCOC(=O)c1ccc(N2CCOCC2)c(NC(=O)c2c(-c3ccccc3)noc2C)c1
 : x | -0.085
O=C(CC1NCCc2ccccc21)Nc1ccc(Oc2ccccc2)cc1 (stereo not drawn)
 : x | -0.62
COCCn1c(C)cc(/C=N/n2c(-c3ccccc3C)n[nH]c2=S)c1C
 : 0.5 | x
Cc1ccc(NC(=O)CC2NCCN(Cc3ccccc3)C2=O)cc1 (stereo not drawn)
 : 0.35 | 0.57
CCN(CC)S(=O)(=O)c1ccc(-c2csc(C)n2)s1
 : 0.05 | 0.16
CCOc1cc(-c2nn3c(C(C)(C)C)nnc3s2)cc(OCC)c1OCC
 : -0.25 | 18
Cn1nc(-c2ccc(C(=O)N3CCN(CCO)CC3)cc2)c2ccccc2c1=O
 : 0.4 | -0.14
Cc1ccc(C23CC4CC(CC(C(=O)CN5CCOCC5)(C4)C2)C3)cc1
 : x | 0.09
O=C(NC1C2CC3CC(C2)CC1C3)c1cc2ccccc2o1 (stereo not drawn)
 : -0.25 | x
CC(=O)N=C(N=Nc1c(O)[nH]c2ccccc12)NC(C)=O
 : -0.7 | -2.1
CCOC(=O)c1ccccc1OC1OC(COC(C)=O)C(OC(C)=O)C(OC(C)=O)C1NC(C)=O (stereo not drawn)
 : x | 2.2
Clc1cc(N2CCOCC2)nc(-c2ccccc2)n1
 : 0 | 1
CCOC(=O)c1c(C)n(C)c2c1cc(OC(=O)c1ccc(C)cc1)c1ccccc12
 : x | -0.23
Cc1ccc2sc(C(=O)O)cc2c1
 : 2 | -1.1
CC(C)c1nc2ccc(F)cc2c2c1C(=O)N(CCCN(C)c1ccccc1)C2=O
 : x | -0.6
CC(C)(C)c1cc(C(=O)NNC(=O)OCC#Cc2ccccc2)n[nH]1
 : x | 0.15
C#CCn1c(-c2nonc2N)nc2ccccc21
 : 0.5 | -0.34
O=C(c1cnoc1)c1cc(Cl)cc(Cl)c1O
 : -0.4 | 2
NC(=O)c1ccc(N2CCCCC2)c(N)c1
 : -0.9 | 14
CCOc1ccc(Nc2nc(O)c(C3=c4cc(Br)ccc4=NC3=O)s2)cc1
 : x | 0.03
COc1ccc(C2=C/C(=C/c3ccc4c(c3)OCO4)C(=O)O2)cc1
 : 0.35 | 0.04
Cc1[nH]c2ccccc2c1Cc1nnc(SCC(N)=O)n1Cc1ccco1
 : -0.35 | x
Cc1cc2c(cc1C)-c1c(ssc1=Nc1cccc(C)c1C)C(C)(C)N2
 : x | 0.83
COC(=O)c1ccc(C2N(Cc3ccc(F)cc3)CCCN2Cc2ccc(F)cc2)cc1
 : 0.6 | -1.2
COC(=O)c1ccccc1Sc1nc2ccc(Cl)cc2s1
 : -0.05 | -0.73
Cc1nc2cc(NS(=O)(=O)c3ccc(Oc4ccccc4)cc3)ccc2s1
 : 0.45 | 2.9
N#CC1=C(N)Oc2n[nH]c(-c3ccccc3)c2C1c1ccc(OC(=O)N2CCOCC2)cc1 (stereo not drawn)
 : x | 0.72
Cc1ccc(S(=O)(=O)N2CCC(CN3C(=O)c4cccc5cccc(c45)C3=O)CC2)cc1
 : x | 28
O=C(CSc1nc(-c2ccc3c(c2)OCO3)nc2cc(=O)[nH]n12)NCCc1nc2ccccc2[nH]1
 : -0.1 | -2.4
CCOc1cc(/C=C2\SC(=N)N(c3nonc3N)C2=O)ccc1OCCN1CCOCC1
 : x | -0.36
COc1ccc(NC(=O)[C@H](CCS(C)(=O)=O)N2Cc3ccccc3C2=O)cc1Cl
 : -0.1 | -0.07
Cc1ccc(CN(C)CC(=O)Nc2ccc3c(c2)OCCCO3)cc1
 : -0.75 | x
Cc1cccc(N2C(=O)C(=O)/C(=C(/O)c3ccccc3)C2c2cccc(F)c2)c1 (stereo not drawn)
 : x | 0.08
C#CCN1C(=O)C2(OCCO2)c2ccccc21
 : x | 0.02
O=C(NC1CCCC1)C(c1ccccc1)N(Cc1ccc2c(c1)OCO2)C(=O)c1ccco1 (stereo not drawn)
 : -0.55 | x
O=C(c1ccccc1)c1cn(Cc2ccccc2)c2ccccc2c1=O
 : 1.1 | 0.51
CCN1/C(=C2\C(=O)N=C(C)N2c2ccccc2)C=Cc2ccc(C)cc21
 : 0.4 | 0.23
CCCOC(=O)C(C)Oc1ccc2c(=O)c(-c3ccccc3Cl)coc2c1 (stereo not drawn)
 : -0.8 | -0.36
COc1ccc(CNC(=O)Cc2csc(N3CCCC3=O)n2)cc1
 : 0.5 | x
CCCCC1SC(=Nc2ccccc2)N(S(=O)(=O)c2ccc(C)cc2)C1=O (stereo not drawn)
 : x | 0.36
Cc1ccc(-c2n[nH]c(=O)c3ccccc23)cc1S(=O)(=O)NC(C)C
 : x | -0.015
CCc1ccc(Nc2n[nH]c(=S)s2)cc1
 : -0.05 | -0.74
CCC(=O)N(C)/C=C1\Sc2ccccc2C1=O
 : x | 0.11
CCCc1oc2ccc(NS(=O)(=O)c3ccc(C(C)(C)C)cc3)cc2c1C(=O)OCC
 : x | -0.49

Shown as labelled records: part of the list above
> CCCOC(=O)C(C)Oc1ccc2c(=O)c(-c3ccccc3Cl)coc2c1 (stereo not drawn)
  AID504770: -0.8
  CapD inh: -0.36
> COc1ccc(CNC(=O)Cc2csc(N3CCCC3=O)n2)cc1
  AID504770: 0.5
  CapD inh: x
> CCCCC1SC(=Nc2ccccc2)N(S(=O)(=O)c2ccc(C)cc2)C1=O (stereo not drawn)
  AID504770: x
  CapD inh: 0.36
> Cc1ccc(-c2n[nH]c(=O)c3ccccc23)cc1S(=O)(=O)NC(C)C
  AID504770: x
  CapD inh: -0.015

Screening results from PubChem BioAssay.

Random draw from the library; 0.37% or so of the library scored in one or more.
